# miR-21 reporter: raises the signal of a miR-21 reporter | HeLa miR-21 FLuc reporter, luciferase, 48 h | Potency, µM (top dose mostly 38.3 µM), for inactives: at the top dose reporter change, positive = more light | 340,000 tested, under 10 active | AID 2288; active = well fitted rising curve with a large enough effect; inconclusive = small, poorly fitted or top-dose-only effect; inactive = no such curve, though single readings can be large or run the other way;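 further: % of control where 0% means no effect; miR-21 action dims this reporter so a rising signal means less miR-21 action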
#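 HeLa cells endogenously expressing miR-21, stably carrying CMV-driven firefly luciferase with a downstream miR-21 binding site, 2000 cells/well. Titrations up to approximately 40 uM, 48 hours; luciferase luminescence read.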
# GLA inh pH 4.5: inhibitors of human alpha-galactosidase A at pH 4.5; purified enzyme, 4-MU-alpha-Gal fluorescence, pH 4.5; activity change, negative = inhibition, % at 105 µM; P06280; 230,000 tested, under 10 active; inconclusive = small, poorly fitted or top-dose-only inhibition, or a rising curve; inactive = flat fitted curve, though single readings scatter; no compound was filed as active;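 further: 0% = full activity with enzyme and -100% = basal without enzyme; dose as in the result columns while the protocol names 77 µM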
# Target sequence (P06280 whole entry, looked up): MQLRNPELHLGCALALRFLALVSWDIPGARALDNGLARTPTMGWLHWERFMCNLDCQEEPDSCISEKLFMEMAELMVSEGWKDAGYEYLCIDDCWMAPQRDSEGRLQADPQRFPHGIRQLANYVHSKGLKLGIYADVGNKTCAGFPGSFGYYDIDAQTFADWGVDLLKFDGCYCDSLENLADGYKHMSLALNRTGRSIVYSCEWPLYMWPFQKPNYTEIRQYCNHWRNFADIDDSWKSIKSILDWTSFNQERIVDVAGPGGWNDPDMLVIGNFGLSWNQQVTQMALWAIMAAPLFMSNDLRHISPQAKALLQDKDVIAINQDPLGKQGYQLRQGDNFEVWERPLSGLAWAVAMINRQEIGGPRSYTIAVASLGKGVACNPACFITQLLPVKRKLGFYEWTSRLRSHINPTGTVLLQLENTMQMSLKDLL
# Rango-impB inh: prevents formation of the Rango-importin beta complex | Q14974 | Rango CFP/YFP FRET sensor + importin beta, 45 min | Potency, µM (series often up to 92.2 µM), inactives show at the top dose inhibition of complex formation | 340,000 tested, 0.031% active | AID 540263; active = rising FRET ratio curve, often small or poorly fitted; inconclusive = mostly compound fluorescence or quenching in the first reads; inactive = flat curves in all reads;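 further: potency means the concentration at half of the fitted maximal effect; 0% = DMSO wells and 100% = buffer wells lacking importin beta; nearly all actives have a fitted effect of over 15% in size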
#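 FRET biosensor (snurportin 1 IBB flanked by EYFP and cerulean), 50 nM, with compound 5 min, then 0.125 microM importin beta in PBS, 1 mM DTT, 0.02% Tween-20, 0.1% BSA. CFP/YFP ratio read after 45 min at room temperature; pre-read flags interference.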
# Rango dissoc inh: inhibitors of RanGTP-induced Rango-importin beta complex dissociation; AID 540253; Biochemical FRET Rango-importin beta, RanGTP-induced dissociation; 340,000 tested, 0.071% active; O95149+P62826; Potency, µM (series often up to 46.1 µM), without a hit: at the highest dose activity change, negative = inhibition; active means falling FRET ratio curve, often poorly fitted, with flat reads before Ran was added; inconclusive means other falling curves, or compound fluorescence or quenching; inactive means flat or rising ratio curve;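 further: potency means the concentration at half of the fitted maximal effect; % of control where 0% means no effect; nearly all actives have a fitted effect of over 45% in size; -100% = wells without RanGTP and RCC1; the record marks most hits as doubtful in a second field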
#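 Compounds preincubate 5 min with complex of recombinant Rango and importin beta in PBS with 1 mM DTT. Ran (0.6 uM) loaded with 2 mM GTP plus 0.2 uM RCC1 starts dissociation; FRET is recorded 45 min later.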
# An asterisk follows results filed as active; u = inconclusive; x = no result given; & = joins results of further samples; [ ] = another dose, or the depositor's remark. Not all compounds are listed; rates above refer to the full screens.
SMILES,miR-21 reporter,GLA inh pH 4.5,Rango-impB inh,Rango dissoc inh
CN(C)CCCNC(=O)c1ccc(Oc2ccccc2)cc1,0%,6,-0.4%,-3%
O=C(CNC(=O)c1ccccc1F)OC1CCOC1=O (stereo unspecified),x,x,0.0%,-3%
COc1ccccc1NC(=S)N(Cc1ccc(C(=O)O)cc1)Cc1ccc(OC)c(OC)c1,-6%,-3[21.1 µM],-4.4%,-1%
CC1=C(C#N)C(NC(=O)c2ccc(Cl)cc2)(C(F)(F)F)C(=O)N1 (stereo unspecified),-9%,-8,9.6%,4%
CC(=O)Nc1c(S(=O)(=O)c2ccccc2)c2nc3ccccc3nc2n1Cc1ccccc1,7%,29,u,u
CCN(CC)CCNC(=O)c1cn(CC)c2ccc(S(=O)(=O)N3CCc4ccccc4C3)cc2c1=O,0%&-2%,x,9.8%,15%
COc1ccc(C(c2nnnn2Cc2cccs2)N2CCN(c3ccccc3F)CC2)cc1 (stereo unspecified),-1%,-8,2.9%,6%
Cc1nc2c(C(=O)NCc3ccccc3Cl)c[nH]n2c(=O)c1Cl,-10%,2,-0.1%,-4%
O=C(COc1ccc([N+](=O)[O-])cc1)Nc1ccc(C(=O)NCc2cccnc2)cc1,17%,2,-5.1%,-4%
CC(C)c1ccc2occ(-c3nn[nH]n3)c(=O)c2c1,-8%,-15,0.0%,-10%
CCOc1cccc(/C=C(/C#N)c2nc3ccccc3[nH]2)c1OCC(=O)O,-35%,x,u,3%
Cc1ccc(C(NC(=O)c2cccc(S(=O)(=O)N3CCN(C)CC3)c2)c2ccccc2)cc1 (stereo unspecified),x,x,-5.2%,6%
N/C(Cc1cccc2ccccc12)=N\OC(=O)c1ccccc1F,-19%,x,2.4%,-17%
C1=CC2CC1CC2CN1CCN(Cc2ccccc2)CC1 (stereo unspecified),1%,2,2.9%,-3%
CCCCN1C(=O)/C(=C/C=C2\N(C)c3ccccc3C2(C)C)SC1=S,-1%,3,x,x
CCN(CC(=O)NC1CCCCC1)S(=O)(=O)c1ccc(Cl)cc1,-2%,-1,-5.1%,1%
COC(=O)[C@@H](NC(=O)c1ccc(OC2CCN(Cc3ccccn3)CC2)cc1)C(C)C,-3%,1,0.4%,15%
CCOc1ccc(/C=C2/SC(=S)N(n3c(C)ccc3C)C2=O)cc1,4%,4,2.6%,0%
Cc1ncsc1C(=O)N1CCCC(C(=O)c2ccc3ccccc3c2)C1 (stereo unspecified),4%,x,0.5%,-11%
CCC(=O)c1ccc(N2CCOCC2)c(F)c1,x,x,-0.3%,-9%
Cc1ccc(CNc2nc3ccccc3n3cnnc23)cc1,-4%&-8%,2,0.7%,-21%
Cc1ccc(NC(=O)COC(=O)c2ccc(S(=O)(=O)NCc3ccco3)cc2)cc1,x,x,1.0%,-16%
Cc1cc(C)n2nc(C(=O)NCc3ccccc3)cc2n1,-4%,6,-4.6%,0%
C=C(C)c1cccc(C(C)(C)NC(=O)Nc2nnc(C(C)C)s2)c1,3%,6,2.5%,u
O=C(c1ccc(F)cc1)N1CCN=C1c1ccccc1,-6%,-2,0.4%,2%
SMILES,miR-21 reporter,GLA inh pH 4.5,Rango-impB inh,Rango dissoc inh
CSc1nnc(C(C)(C)C)c(=O)n1/N=C/c1ccc(C(C)C)cc1,0%,-6,3.6%,10%
O=C(Nc1cccnc1Cl)c1cc(-c2ccc(Cl)cc2)on1,2%&0%,x,0.3%,14%
CCn1c(Cc2ccccc2)nnc1SCC(=O)Nc1nccs1,2%,-4,1.6%,3%
COC(=O)/C(=N/Nc1ccccc1C)Sc1nnc(C(O)c2ccccc2)n1-c1ccccc1 (stereo unspecified),0%,-5,1.6%,-12%
C#CCNC(=O)C1=C[C@@H](c2ccccc2)C[C@@H](OCCCCO)O1,x,x,0.1%,-11%
CN(C)c1cccc(NC(=O)Cc2ccc(F)cc2)c1,-5%,2,-3.4%,-8%
Fc1ccc(NC(=S)N2CCSC2c2cccs2)cc1 (stereo unspecified),-1%,-1,1.5%,2%
Nc1nc2c(c3c1c(=O)oc1ccccc13)CCCCC2,-1%,3,-2.2%,-21%
COc1c(Cl)cc(C(=O)Nc2ccc(Cl)cn2)cc1Cl,-23%,-6,-6.2%,-2%
CC1CCc2nc3ccccc3c(C(=O)OCC(=O)N3CCc4ccccc43)c2C1 (stereo unspecified),-1%,-3,-4.1%,5%
O=C(CNc1cccc(S(=O)(=O)N2CCCCC2)c1)Nc1cccc(F)c1,x,x,u,u
COc1ccccc1-n1ccnc(SCC(=O)NC2CCCCC2)c1=O,x,x,-0.2%,3%
Cc1c(C(=O)Oc2ccc(Cl)cc2)n(C)oc1=O,-3%,0,6.3%,-7%
CCCOc1ccc(Cc2c(Cl)nc(SC)nc2OC)cc1,-10%,-1,2.8%,4%
CC/C(=N\NC(=O)c1c[nH]c2ccccc12)c1cccs1,-61%,-5,-4.4%,-11%
O=C(CCN1CCN(CC(=O)Nc2ccccc2F)CC1)Nc1ccccc1F,-8%,1,-1.6%,-1%
Cc1nn(CC(=O)NCc2ccccn2)c(C)c1[N+](=O)[O-],0%,-7,-1.6%,1%
Cc1cc(C(=O)COC(=O)c2cnccn2)c(C)n1-c1ccc(Br)cc1,x,x,-2.0%,-2%
CC(C)[C@H](NC(=O)[C@@H]1CSC2c3ccccc3C(=O)N21)C(=O)NCc1ccncc1 (stereo partly specified),0%,x,3.0%,1%
Cc1cc(OC2CCCCC2)nc(-c2ccccc2O)n1,-4%,-1,-3.6%,15%
CCOc1ccc(NC2=C(Cl)C(=O)N(C3CCCCC3)C2=O)cc1,-4%,2,0.1%,6%
O=C(C1CCCN(S(=O)(=O)c2ccc(Br)cc2)C1)N1CCN(Cc2ccccc2)CC1 (stereo unspecified),12%,x,2.2%,18%
O=C(COc1ccc(-c2ccccc2)cc1)NNC(=O)NC1CCCCC1,-4%,-12,0.0%,-19%
CCOC(=O)/C(C)=N/NC(=O)c1ccc([N+](=O)[O-])cc1,3%,-4,0.1%,-1%
O=C(CN1CCN(c2ccc(F)cc2)CC1)Nc1cccnc1Cl,1%,6,3.2%,u
SMILES,miR-21 reporter,GLA inh pH 4.5,Rango-impB inh,Rango dissoc inh
COc1cccc(OC)c1C(=O)Nc1ccc2c(c1)n(C)c(=O)n2C,-3%,x,-0.7%,-15%
COc1cccc(CN2CC(C(=O)NCc3ncc(C)[nH]3)CCC2=O)c1 (stereo unspecified),-4%,x,-0.6%,-4%
Cc1ccc(OCCCSc2ncccn2)cc1C,-74%,-4,-2.3%,17%
Cc1ccc(-n2ncc(-c3nnc(SCC(=O)NC4CCCC4)o3)c2N)cc1C,-1%,4,7.0%,-1%
CCOc1ccc(N2C(=O)CSC2=NC#N)cc1,x,x,-1.4%,-2%
CCOc1ccc(C(=O)OCC(=O)NCCCc2ccccc2)cc1,1%,x,2.3%,16%
COc1ccccc1N1CCN(C(=O)CCCNC(=O)Cn2cnc3sc(C)c(C)c3c2=O)CC1,7%,x,-1.1%,-21%
COCCN(C(=O)c1csnn1)C(C(=O)NC1CCCCC1)c1ccccc1F (stereo unspecified),-1%,x,-0.8%,-6%
CCCCCCOc1ccc(N2C(=O)CC(SC(=NCC)NCC)C2=O)cc1 (stereo unspecified),2%,2,0.5%,-5%
Cc1n[nH]c(C)c1CCCCOc1ccccc1,-6%,1,-0.4%,-3%
O=C(O)c1cccnc1SCC(=O)C12CC3CC(CC(C3)C1)C2,1%,-1,-4.2%,-7%
C[C@@H]1CN([C@H](C)CO)C(=O)c2cccc(NC(=O)NC3CCCCC3)c2O[C@@H]1CN(C)C(=O)Nc1ccc(C(F)(F)F)cc1,x,x,-0.8%,1%
CC(=O)Nc1cccc(NC(=O)CCN2C(=O)c3ccccc3S2(=O)=O)c1,x,x,3.1%,-1%
COc1ccc(C)cc1NC(=O)c1nn(C)cc1Br,1%,-4,-0.8%,-1%
CN1CCN(CC(=O)Nc2sc3c(c2C(=O)Nc2ccccc2)CCCC3)CC1,-10%,x,-1.4%,8%
CCN(CC)CCSc1nnc2c3ccccc3n(Cc3ccccc3)c2n1,7%,-13,-0.2%,19%
O=C(CN(c1ccccc1)S(=O)(=O)c1ccc(F)cc1)NC1CCCCCC1,-1%,x,5.0%,-9%
CCc1ccccc1Nc1nc(N)nc(COC(=O)C2=COCCO2)n1,x,x,-0.4%,0%
Cc1cc(NC(=O)/C=C/c2ccccc2Cl)no1,-52%,-2,0.0%,1%
O=[N+]([O-])c1cc([N+](=O)[O-])c(Oc2cccc3c2CCCC3)cc1NN1CCCCC1,x,x,-3.9%,-8%
Cc1cccc(-c2noc(CCC(=O)NCC3CCCO3)n2)c1 (stereo unspecified),-7%,3,-3.2%,-4%
CC1CCCC(C)N1C(=O)CSc1nnc(COc2cccc3cccnc23)o1 (stereo unspecified),0%,-9,-0.6%,u
O=C(CNC(=O)c1ccco1)OCc1cccc(Cl)c1,-6%,-3,0.0%,13%
CC(C)(C)c1ccc(C(=O)NCCCn2ccnc2)cc1,-11%,x,-0.2%,-8%
O=C(NCc1ccc(F)cc1)c1cccc(NC2=NC3CS(=O)(=O)CC3S2)c1 (stereo unspecified),-4%,x,-2.9%,20%
SMILES,miR-21 reporter,GLA inh pH 4.5,Rango-impB inh,Rango dissoc inh
CC(C)(C)NC(=O)CSc1ncnc2c1nnn2Cc1ccccc1Cl,19%,-5,0.1%,0%
Cc1ccccc1NC(=O)Cc1ccccc1,-5%,0,-2.7%,-6%
NCCc1nnc(SCc2ccccc2F)o1,-8%,9,3.8%,-20%
COC(=O)c1c(S(N)(=O)=O)c2ccccc2n1C,-5%,0,-0.4%,8%
O=C(CSc1nc2cc3ccccc3cc2[nH]1)Nc1ccc(F)cc1,-16%&-14%,2,-0.6%,2%
C=CCc1ccc(OCCCCCN2CCOCC2)c(OC)c1,-10%,-17,0.5%,2%
COCCNC(=O)CN1N=C(c2ccc(C)cc2)CCC1=O,2%,x,-2.3%,0%
CCOc1nc(N2CCOCC2)nc(N2CCOCC2)n1,2%,-8,5.0%,16%
CC(C)(C)NC(=O)CN(C(=O)c1csnn1)c1cccc2c1CCCC2,-2%,-3,-1.9%,-4%
O=C(CSc1ccccc1)Nc1ccc(N2CCN(c3ccccc3)CC2)c(F)c1,7%,-5,4.6%,9%
O=C(CSc1nc2ccccc2s1)NCC1CCCO1 (stereo unspecified),-9%,x,0.5%,23%
Cc1ccc(C)n1NC(=O)c1ccc(O)cc1,1%,0,-0.2%,-7%
CN(C)c1ccc(C(=O)OCC(=O)c2cccs2)cc1,-49%,-1,2.2%,-12%
CCOC(=O)N1CCN(C(=O)CSCC(=O)Nc2nc(-c3ccccc3)cs2)CC1,-32%,-2,5.0%,-13%
CCCOC1CCCN(C(=O)CCCn2nnnc2CN2CCOCC2)C1 (stereo unspecified),2%,x,0.2%,-8%
Cc1nn(C(C)C(=O)NCc2ccccc2)c(C)c1[N+](=O)[O-] (stereo unspecified),-1%,2,-0.7%,0%
Cc1cccc(C)c1NC(=O)CNC(=O)Cc1ccccc1[N+](=O)[O-],1%,x,-0.5%,2%
CSCC[C@H](N)C(=O)NC[C@H]1O[C@@H](n2cnc3c(N)ncnc32)[C@H](O)[C@@H]1O,x,x,0.7%,8%
CSCC[C@H](NC(=O)CCn1nnc2ccccc2c1=O)C(=O)O,6%,-1,0.4%,10%

# Filtered by structure, those above containing an NH in an aromatic ring (7)
SMILES,miR-21 reporter,GLA inh pH 4.5,Rango-impB inh,Rango dissoc inh
Cc1nc2c(C(=O)NCc3ccccc3Cl)c[nH]n2c(=O)c1Cl,-10%,2,-0.1%,-4%
CC(C)c1ccc2occ(-c3nn[nH]n3)c(=O)c2c1,-8%,-15,0.0%,-10%
CCOc1cccc(/C=C(/C#N)c2nc3ccccc3[nH]2)c1OCC(=O)O,-35%,x,u,3%
CC/C(=N\NC(=O)c1c[nH]c2ccccc12)c1cccs1,-61%,-5,-4.4%,-11%
COc1cccc(CN2CC(C(=O)NCc3ncc(C)[nH]3)CCC2=O)c1 (stereo unspecified),-4%,x,-0.6%,-4%
Cc1n[nH]c(C)c1CCCCOc1ccccc1,-6%,1,-0.4%,-3%
O=C(CSc1nc2cc3ccccc3cc2[nH]1)Nc1ccc(F)cc1,-16%&-14%,2,-0.6%,2%

# Screens (PubChem BioAssay)
